Vaccinia Venus: inhibitors of vaccinia virus (Venus reporter); Vaccinia virus Venus reporter expression, fluorescence; AID 720580; 330,000 compounds, 0.46% hits; Potency, µM (highest dose often 36.5 µM), for the others: at the highest dose activity change, negative = inhibition, most hits filed as inhibitors; active means well fitted inhibition curve with a large enough effect; inconclusive means small, poorly fitted or top-dose-only effect; inactive means no such curve, though single readings can be large or run the other way; tested in A549 cells; also: nearly all actives have a fitted effect of over 30% in size; inactives centre near -10
Vaccinia mCherry: vaccinia inhibition (mCherry reporter); Vaccinia virus mCherry reporter infection, fluorescence; about a quarter of the inactives have no number; Potency, µM (titrated, usually from 36.5 µM), inactives show at the highest dose activity change, negative = inhibition, usual class: inhibitors; 310,000 compounds, 0.63% hits; AID 720579; active = well fitted inhibition curve with a large enough effect; inconclusive = small, poorly fitted or top-dose-only effect; inactive = no such curve, though single readings can be large or run the other way; tested in A549 cells; also: nearly all actives have a fitted effect of over 35% in size; inactives centre near -10
* hit, by the source's call; i = inactive; ? = inconclusive; . = not tested or not shown; [ ] = another dose, or the depositor's remark. % is scaled to controls: 0 for no effect and ±100 for the full control effect; potency is read from the fitted curve at half-maximal effect.

Fields: Vaccinia mCherry	Vaccinia Venus
C/C(=N\Nc1cccc(C(F)(F)F)c1)c1ccc(O)cc1
→ -23%	-13%
COC(=O)NNC(=O)COc1ccc2ccccc2c1Br
→ -18%	-7%
COc1ccc(C(=O)N2CCc3cc(OC)c(OC)cc3C2c2ccc(OC)c(OC)c2)cc1OC (stereo not given)
→ -19%	-5%
CCN(Cc1ccncc1)C(=O)c1cc(COc2ccc(OC)cc2Cl)on1
→ -26%	-15%
CCN(CC)S(=O)(=O)c1ccc2oc(C(=O)Nc3ccc(Br)cc3F)c(C)c2c1
→ ?	?
Cc1cccc2sc(NC(=O)CSc3cn[nH]n3)nc12
→ ?	-5%
CS(=O)(=O)N1CCCCC1c1cc(C(=O)NCc2ccc(Cl)c(Cl)c2)no1 (stereo not given)
→ 56%[activator]	38%[activator]
O=C1C=CC(=O)N1c1ccc(Nc2ccccc2)cc1
→ -3%	6%
N#Cc1nc(-c2ccc(COc3ccccc3)o2)oc1NCc1cccnc1
→ -7%	-15%
CCCCNc1nc(Oc2ccc(=O)[nH]n2)nc(N(C)C)n1
→ -3%	5%
CCN(CC)CCN(C(=O)C1=COCCO1)c1nc2ccc(C)cc2s1
→ -2%	-25%
S=c1[nH]nc(-c2ccc(Cl)cc2Cl)n1Cc1ccccc1
→ -5%	0%
O=C(Cn1cncn1)NCc1cccc(OC(F)F)c1
→ ?	-7%
CCOC(=O)c1c(-c2ccc(OC)cc2)csc1NC(=O)CNCc1ccco1
→ -13%	-9%
Cc1ccc(N(CC(=O)NC(C)C)C(=O)CCC(=O)Nc2ccccn2)c(C)c1
→ i	-8%
Cc1ccc(-c2nc(C)c(CCNC(=O)C(=O)Nc3ccc4c(c3)OCO4)s2)cc1
→ -3%	2%
CC1=C(C(=O)OC(C)C)C(c2cccs2)n2ncnc2N1 (stereo not given)
→ i	-18%
COc1ccccc1CNC(=O)CCn1c(=O)c2ccccc2n(CC(=O)Nc2cccc(Cl)c2)c1=O
→ -20%	-17%
COc1ccc(C(=O)N/C(=C\c2cn(C)c3ccccc23)C(=O)N2CCN(C)CC2)cc1
→ ?	-12%
Cc1cc(-c2ccccc2)nc2oc(C(=O)NN)c(N)c12
→ -29%	-23%
COc1cc2c(cc1OC)C(c1ccccc1N)=NCC2
→ -7%	-11%
NC(=O)C1CCN(C(=O)CCSc2ccc(Cl)cc2)CC1
→ -6%	-4%
CC1(C)CC(c2nc(-c3ccc(Cl)cc3)cs2)CCS1 (stereo not given)
→ .	-39%
COc1ccc(-n2c(SCC(=O)Nc3ccc4c(c3)OCO4)nc3c(c2=O)SCC3)cc1
→ i	-16%
O=C(CSc1nc2ccc(Cl)cc2[nH]1)NCCc1ccc(Cl)cc1
→ i	-10%
C=Cc1ccc(Cn2c(=O)n(-c3cccc(Cl)c3)c(=O)c3c4c(sc32)CN(C(C)=O)CC4)cc1
→ -29%	-12%
O=c1cc([O-])[n+]2c3n1CCCN3CCC2
→ i	-9%
Cc1cc(C)c2c(CN(Cc3ccccc3)Cc3ccccc3)cc(=O)oc2c1
→ i	1%
O=C1CC(c2ccc(F)cc2)Cc2nc(NCc3ccco3)ncc21 (stereo not given)
→ .	-25%
Cc1cccc(CNC(=O)c2oc3c(c2C)-c2nn(Cc4cccc(Cl)c4)cc2CC3)c1
→ -14%	-12%
COC(=O)c1ccc(/C=N/Nc2nc(-c3ccc(C)cc3)cs2)cc1
→ 13µM*	?
O=C1N=c2ccccc2=C1c1sc(NS(=O)(=O)c2ccccc2)nc1O
→ i	-6%
C=CCOC(=O)C1=C[C@H](c2ccc(C(F)(F)F)cc2)[C@@H](CCCO)[C@H](OCC)O1
→ -9%	-7%
O=C(CCSCc1ccccc1F)N1CCN(c2ccc(Cl)cc2)CC1
→ -9%	-10%
COC1=C(NCc2ccc3c(c2)OCO3)C(=O)C(OC)=C(NCc2ccc3c(c2)OCO3)C1=O
→ -10%	-3%
CSc1ncccc1C(=O)OCC(=O)N1CCc2ccccc21
→ -13%	3%
Cc1cn2c(N)c(C=C3C=C(Cl)C(=O)C(Cl)=C3)c(=O)nc2s1
→ 10%	13%
Cc1c(CNC2CCCCC2)c(C(=O)O)c(C)n1Cc1c(F)cccc1Cl
→ 2%	4%
COc1ccc(CNCCc2c[nH]c3ccccc23)c(OC)c1C
→ -10%	-14%
COc1ccc(C(=O)Nc2sc(C(=O)N(C)C)c(C)c2C#N)cc1[N+](=O)[O-]
→ -7%	-6%
COc1ccccc1C1/C(=C(/O)c2ccc(C)cc2)C(=O)C(=O)N1CCN1CCOCC1 (stereo not given)
→ -9%	-5%
CCc1ccc(NC(=O)C(=O)NCCc2sc(-c3ccc(C)cc3)nc2C)cc1
→ 6%	5%
COc1ccc(NC(=O)CSc2nnc(-c3cccs3)o2)cc1
→ -7%[7.34 µM]	0%[7.34 µM]
O=C(Cn1nnc2ccccc2c1=O)NCc1ccco1
→ .	-17%
CC1Cc2ccccc2N1C(=S)NC(=O)c1ccco1 (stereo not given)
→ -2%	-1%
O=C(CCC1CCCC1)NCCS(=O)(=O)N1CCN(c2ccc(F)cc2)CC1
→ -5%	-25%
O=C(CSc1n[nH]c(-c2cccnc2)n1)Nc1ccc([N+](=O)[O-])cc1
→ 4%	-1%
Cc1nn(-c2ccccc2)cc1/C=N/NS(=O)(=O)c1ccccc1
→ i	-14%
COc1cccc(CNC(=O)[C@@H]2CCCN2C(=O)[C@@H]2CCCN2C(=O)c2cccc(Cl)c2)c1
→ -2%	4%
O=C(Cn1ncc2c1-c1ccccc1OC2)N1CCN(Cc2ccccc2)CC1
→ ?	-14%

More records.
Fields: Vaccinia mCherry	Vaccinia Venus
O=C(CN1CCN(Cc2cccc3ccccc23)CC1)NCCc1ccccc1
→ -14%	-12%
O=C(CCN1CCOCC1)Nc1ccc2c(c1)N(C(=O)CN1CCOCC1)c1ccccc1CC2
→ -14%	-14%
CC1(C)CC(=O)C(C=NCC2CCN(C(=S)Nc3cccc(Cl)c3)CC2)=C(O)C1
→ -20%	-28%
CCOc1ccccc1NC(=S)N1CCN(c2ccc(O)cc2)CC1
→ -26%	-17%
COc1cccc(NC(=O)CN(C)CC(=O)Nc2ccccc2-c2ccccc2)c1
→ i	-20%
O=C(C1=C[C@H](C2CCCCC2)C[C@H](OCc2ccc(CO)cc2)O1)N1CCOCC1
→ i	-24%
Cc1c(Cl)cnc(NC(=O)COC(=O)c2cccc(S(=O)(=O)N3CCOCC3)c2)c1Cl
→ i	-10%
CC(=O)NCCn1c(SCC(=O)NC2CCCCC2)nc2ccccc2c1=O
→ -14%	-14%
C=CCOc1ccc(C2CC(C)=NN2c2ccccc2)cc1 (stereo not given)
→ -16%	-4%
CCCSc1nc2c(c(=O)n(C)c(=O)n2C)n1C
→ 8%	-19%
CC(C)n1cnc2c(Nc3ccc(F)c(Cl)c3)nc(NCCO)nc21
→ 10µM*	?
O=C(CNC(=O)c1ccco1)Nc1ccc(Cl)cc1
→ -16%	-19%
CCOC(=O)c1sc(SC)c(C(C)=O)c1C
→ .	2%
COc1cc(NC(=O)c2ccco2)c(OC)cc1NC(=O)CSc1ncc(-c2ccc(F)cc2)[nH]1
→ -16%	-13%
CSc1ncnc2c1ncn2CCCN1CCN(C(=O)C2CC2)CC1
→ i	-4%
COc1ccc(C2CC(=O)Nc3cc(OC)c(OC)cc32)cc1 (stereo not given)
→ i	-20%
Cc1noc(C)c1COc1ccc(CC(=O)NCCc2ccccc2)cc1
→ -14%	-4%
Cc1ccccc1NC(NC(=O)OCCn1c([N+](=O)[O-])cnc1C)C(Cl)(Cl)Cl (stereo not given)
→ -17%	-18%
Cn1cc([N+](=O)[O-])c(C(=O)NCC(=O)O)n1
→ -5%	-5%
Cc1oc(C(C)(C)C)cc1C(=O)NC(Cc1ccccc1)C(=O)O (stereo not given)
→ -10%	4%
Nc1nc2ccc(Br)cc2o1
→ i	-5%
CC[C@]12c3[nH]c4ccccc4c3CCN1C(=O)C(CC(=O)NCCC1=CCCCC1)C[C@@H]2C(=O)N1CCN(C(=O)c2ccco2)CC1 (stereo not given in full)
→ i	-14%
Cc1cccc(C)c1NC(=O)N1CCC(n2c(=O)[nH]c3ccccc32)CC1
→ i	-1%
CC(=O)OC1CCC2(C)C(CCC3C2CC(OC(C)=O)C2(C)C3C[C@@H]3O[C@]4(CC[C@@H](C)CO4)[C@@H](C)C32)C1 (stereo not given in full)
→ -17%	-5%
CCCC(=O)NC(=S)Nc1ccc(S(=O)(=O)N2CCc3ccccc32)cc1
→ -19%	-19%
COc1cccc(/C=N/n2cnnc2)c1OCc1ccccc1
→ .	-11%
CCCOc1ccc(C(=O)NC2CCSc3ccccc32)cc1 (stereo not given)
→ -17%	?
Cc1ccccc1NC(=O)C1CC(=O)OC12CCOC(C)(C)C2 (stereo not given)
→ -5%	-8%
CC(C)(C)c1ccc(NC(=O)COC(=O)c2ccc(NS(=O)(=O)c3ccc(F)c(F)c3)cc2)cc1
→ -1%	?
O=C(CCCCCNC(=O)N1CCn2c1nc1ccccc12)N[C@H](Cc1ccccc1)C(=O)O
→ 7%	2%

Taken from above, 2 compounds:
Fields: Vaccinia mCherry	Vaccinia Venus
CC(C)(C)c1ccc(NC(=O)COC(=O)c2ccc(NS(=O)(=O)c3ccc(F)c(F)c3)cc2)cc1
→ -1%	?
O=C(CCCCCNC(=O)N1CCn2c1nc1ccccc12)N[C@H](Cc1ccccc1)C(=O)O
→ 7%	2%

More structures
Fields: Vaccinia mCherry	Vaccinia Venus
Cc1ccccc1CN1CCN(S(=O)(=O)c2ccc(Cl)s2)CC1
→ -2%	-10%
CCc1ccc(Nc2ncccc2C#N)cc1
→ -3%	-12%
NC(Cc1ccc(Cl)cc1)c1csc(Nc2ccccn2)n1 (stereo not given)
→ -21%	?
COc1cc(CN2CCCC(n3cc(C(=O)N4CCCCC4)nn3)C2)cc(OC)c1OC (stereo not given)
→ 1%	-4%
O=C(/C=C/c1ccco1)NC(=S)Nc1cccc(-c2nc3ccccc3o2)c1
→ .	-35%
Cc1cnc(SCc2ccccn2)nc1C1CCCN(Cc2ccsc2)C1 (stereo not given)
→ -17%	-14%
CC(C)CCNC(=O)C12CN(Cc3ccccc3)CC1C(c1ccc([N+](=O)[O-])cc1)=NO2 (stereo not given)
→ -14%	-20%
Cc1nn(CC(=O)N2CCc3ccccc32)c(C)c1S(=O)(=O)NC(C)(C)C
→ ?	?
CN(C)/C=C(/C(=O)c1ccccc1)n1cncn1
→ -7%	1%
CCOc1ccc(OCC)c(NC(=O)C2CCN(c3cnccn3)CC2)c1
→ -9%	-2%
N#Cc1cccc(NC(=O)c2cc(C3CCCCN3C(=O)c3ccccn3)on2)c1 (stereo not given)
→ -7%	-4%
COc1cc(/C=C2\N=C3CCCCCN3C2=O)ccc1O
→ -2%	-8%
COc1ccc(C(=O)Nc2nnc(C3=COCCO3)o2)cc1OC
→ -11%	-14%
Cc1csc2nc(COc3ccc(NC(=O)c4ccccc4F)cc3)cc(=O)n12
→ i	-20%
CNc1nnc(-c2cccc(N(C)C)c2)s1
→ -17%	-15%
Cc1c(C(=O)Nc2cccc([N+](=O)[O-])c2)sc2ncn(CC(=O)N3CCOCC3)c(=O)c12
→ ?	-26%
Cc1ccsc1CN(C)CC(=O)N(C)CC(=O)Nc1c(Cl)cccc1Cl
→ -9%	-6%
COc1ccccc1N1CCN(S(=O)(=O)c2c(C)nc3sccn3c2=O)CC1
→ -14%	-17%
COc1ccc(NC(=O)COC(=O)CNC(=O)COc2ccccc2)cc1OC
→ i	-17%
Cc1ccc(S(=O)(=O)CCC(=O)OCC(=O)NCCc2ccccc2)cc1
→ -8%	6%

Arranged by molar mass (rising): 4 of the compounds above.
Fields: Vaccinia mCherry	Vaccinia Venus
CNc1nnc(-c2cccc(N(C)C)c2)s1
→ -17%	-15%
Cc1ccc(S(=O)(=O)CCC(=O)OCC(=O)NCCc2ccccc2)cc1
→ -8%	6%
N#Cc1cccc(NC(=O)c2cc(C3CCCCN3C(=O)c3ccccn3)on2)c1 (stereo not given)
→ -7%	-4%
COc1ccccc1N1CCN(S(=O)(=O)c2c(C)nc3sccn3c2=O)CC1
→ -14%	-17%

Next section:
Fields: Vaccinia mCherry	Vaccinia Venus
COc1cccc(NC(=O)Nc2cc(-c3cn4cccnc4n3)ccc2C)c1
→ 2%	0%
COc1ccccc1CN(C)C(=O)COC(=O)c1ccc(Cl)nc1
→ i	-6%
COc1ccc(C2=NS(=O)(=O)N(C)C(C(=O)NCc3ccco3)=C2)cc1OC
→ 10%	2%
Cc1cc(C)c2nc(NC(=O)c3ccc(S(=O)(=O)N4CCCC4)cc3)sc2c1
→ -10%	-14%
COCC(C)n1c(SC(C)C(=O)NC2CCCCC2C)nc2ccccc2c1=O (stereo not given)
→ -11%	-17%
Cc1ccc(C(c2c(NC(=O)c3ccco3)sc(C)c2C)N2CCOCC2)cc1 (stereo not given)
→ -20%	-25%
CN1CCN(C(=S)NC(=O)c2ccc(Cl)cc2)CC1
→ -26%	-5%
OC[C@@H]1CN(Cc2ccc3c(c2)OCO3)C[C@H](n2cnc3c(NCc4ccncc4)ncnc32)O1
→ -4%	-3%
CCCCNC(=O)C1(O)c2cc(Br)ccc2NC(=O)N1c1cccc(OC)c1 (stereo not given)
→ ?	-1%
Clc1ccc(CSc2nnc(/C=C/c3ccccc3)o2)c(Cl)c1
→ .	-19%
C=CCN(c1ccc(OC)cc1)S(=O)(=O)c1ccc(Cl)c(C(=O)OCC(=O)NC2CC2)c1
→ i	4%
